hNpr1 antagonist: human Npr1 receptor antagonism | P16066 | HEK293 hNpr1 GloSensor cGMP, ANP-stimulated luminescence | Potency, µM (top dose mostly 46.3 µM), inactives show top-dose activity change, negative = inhibition, actives largely listed as inhibitors | hit rate 1.6% among 76,000; active = well fitted inhibition curve with a large enough effect; inconclusive = small, poorly fitted or top-dose-only effect; inactive = no such curve, though single readings can be large or run the other way;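 further: nearly all actives have a fitted effect of over 60% in size; nearly all hits also lower the signal before the agonist is added; a reference antagonist and vehicle were the controls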
Target sequence (P16066 whole entry, looked up): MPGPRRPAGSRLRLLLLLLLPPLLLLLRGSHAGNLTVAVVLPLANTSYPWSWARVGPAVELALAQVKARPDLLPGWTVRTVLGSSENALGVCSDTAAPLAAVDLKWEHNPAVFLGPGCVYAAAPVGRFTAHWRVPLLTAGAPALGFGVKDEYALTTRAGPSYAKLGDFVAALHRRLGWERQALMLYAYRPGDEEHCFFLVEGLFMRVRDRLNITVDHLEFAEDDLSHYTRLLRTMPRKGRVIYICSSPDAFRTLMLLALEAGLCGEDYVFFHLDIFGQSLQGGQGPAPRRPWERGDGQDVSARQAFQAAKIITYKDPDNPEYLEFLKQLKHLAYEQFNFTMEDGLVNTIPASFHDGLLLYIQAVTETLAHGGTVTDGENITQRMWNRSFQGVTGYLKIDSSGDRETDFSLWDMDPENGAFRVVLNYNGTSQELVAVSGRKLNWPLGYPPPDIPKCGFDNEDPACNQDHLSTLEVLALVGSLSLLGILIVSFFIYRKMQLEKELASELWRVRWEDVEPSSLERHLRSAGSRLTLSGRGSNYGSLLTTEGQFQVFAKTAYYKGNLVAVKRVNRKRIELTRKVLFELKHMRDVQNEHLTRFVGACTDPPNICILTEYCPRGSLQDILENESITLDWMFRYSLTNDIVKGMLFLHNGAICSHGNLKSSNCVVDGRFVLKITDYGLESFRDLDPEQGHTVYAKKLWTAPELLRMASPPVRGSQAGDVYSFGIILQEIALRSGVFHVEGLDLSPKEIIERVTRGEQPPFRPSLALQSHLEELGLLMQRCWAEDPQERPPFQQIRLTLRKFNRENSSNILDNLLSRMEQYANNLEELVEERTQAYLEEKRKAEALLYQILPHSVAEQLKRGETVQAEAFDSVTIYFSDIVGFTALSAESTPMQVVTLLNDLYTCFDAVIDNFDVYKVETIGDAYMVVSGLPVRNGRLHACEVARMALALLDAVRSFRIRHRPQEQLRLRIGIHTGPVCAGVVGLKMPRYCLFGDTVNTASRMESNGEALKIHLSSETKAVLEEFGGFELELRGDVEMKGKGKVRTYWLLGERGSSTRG
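Compound pre-incubated 30 min at room temperature on GloSensor-loaded HEK293 cells stably carrying hNpr1 and the pGS-40F cGMP biosensor. Stimulation uses hNppA at 0.1 nM final; luminescence is taken at baseline and 20 min post-agonist.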
* hit, by the source's call; ? = inconclusive; [ ] = another dose, or the depositor's remark. On the % scale 0 is the no-effect control and ±100 the full control effect; potency means the concentration at half of the fitted maximal effect.

SMILES	hNpr1 antagonist
Cc1cccc(C(=O)N2CC3CC(C2)[C@H]2CCCC(=O)N2C3)c1 (stereo partly specified)	-5%
Cn1c2c(c3cc(F)ccc31)CN(C(=O)Nc1ccc(F)c(Cl)c1)CC2	?
CCCCc1cc(C[C@H]2CNCC[C@H]2CC(=O)N2CCC(Cc3ccccc3)CC2)no1	2%
C#CCNC(=O)C1CCCN1c1nc2ncccc2o1 (stereo unspecified)	7%[70.6 µM]
Cc1nc(C)c(C(=O)N2CCCCCCNC(=O)[C@@H]3CCCC[C@@H]32)s1	0%
Cc1cccc(C(=O)N2CC(c3nnc(-c4ccncc4)o3)C3(CCOCC3)C2)c1 (stereo unspecified)	-8%
O=C(CCC1CCCN(S(=O)(=O)c2ccc(F)cc2)C1)NCc1ccccc1 (stereo unspecified)	3%
N#Cc1ccc(C(=O)N2CCN(c3cc(-c4cccs4)[nH]n3)CC2)cc1	?
C[S+](=O)([O-])Nc1cccc(Nc2cnc3ccc(-c4ccccc4)nn23)c1	-3%[70.6 µM]
CCOC(=O)c1cccc(NC(=O)N2CC[C@@H](CC(=O)N(C)CCC#N)[C@@H](CC)C2)c1	-4%[70.6 µM]
O=C1NC(C(=O)N2CCOCC2)Cn2cccc21 (stereo unspecified)	-4%
CN(C)c1nc2c(c(=O)[nH]1)CCN(Cc1ccccc1Br)CC2	2%

The list continues:
SMILES	hNpr1 antagonist
Nc1ncccc1CN1CC[C@@H]2OCC(=O)N(Cc3ccccc3)[C@H]2CC1	?
COc1cccc(C(=O)NC(C(=O)N2CCCCC2)C2CCN(C(=O)c3ccc(F)cc3)CC2)c1 (stereo unspecified)	6%
CN1C(=O)CC(C(=O)O)C12CCN(C(=O)Cc1cccc(F)c1)CC2 (stereo unspecified)	-12%
COc1ccc2[nH]c(C(=O)N3C[C@@H](Oc4ccccc4)C[C@H]3C(=O)N3CCCC3)cc2c1	-3%
CCNc1ncnc2sc3c(c12)CCN(S(=O)(=O)c1ccccc1)C3	3%
O=C(NC1CCc2n[nH]c(=O)n2CC1)c1ccoc1 (stereo unspecified)	2%
CN(C)C(=O)c1cccnc1OC1CCN(S(=O)(=O)Cc2ccc(Cl)cc2)C1 (stereo unspecified)	-8%
CN1CC(c2ccccc2)CC2(CCN(C(=O)C3CCOCC3)CC2)C1 (stereo unspecified)	0%
CN(Cc1cc(-c2ccccc2)n[nH]1)C(=O)c1cn(Cc2ccc(F)cc2Cl)nn1	-22%
O=C(Cc1ccccc1)Nc1ccnn1C1CCN(Cc2cccn2-c2ccccn2)CC1	12%
CN(Cc1cccnc1)c1nc2c(c(=O)[nH]1)CCN(Cc1ccc3[nH]ccc3c1)CC2	1%
CN1CCCN(C(=O)c2cn(C)cn2)c2ccccc21	2%

Gathered by group, the compounds so far containing a Cl atom.
SMILES	hNpr1 antagonist
Cn1c2c(c3cc(F)ccc31)CN(C(=O)Nc1ccc(F)c(Cl)c1)CC2	?
CN(C)C(=O)c1cccnc1OC1CCN(S(=O)(=O)Cc2ccc(Cl)cc2)C1 (stereo unspecified)	-8%
CN(Cc1cc(-c2ccccc2)n[nH]1)C(=O)c1cn(Cc2ccc(F)cc2Cl)nn1	-22%

Next section.
SMILES	hNpr1 antagonist
Cc1ccc(C(=O)N2CCC3(CC2)Cc2ccccc2NC3=O)cc1	-9%[70.6 µM]
CCn1c(CN2CCCN(c3ncccn3)CC2)nnc1C1CC(N)C1 (stereo unspecified)	2%
CN(C1CCc2nn(C)c(=O)n2CC1)S(=O)(=O)c1ccc2c(c1)CCCC2 (stereo unspecified)	5%
CNC(=O)[C@@H]1CN(C(=O)CCc2ccccc2OC)C[C@H]1CO	2%
CCc1cccc(NC(=O)[C@@H]2CN(S(C)(=O)=O)C[C@H]2c2ccncc2)c1	4%
O=C(c1ccc2ccccc2n1)N1CCN(C(=O)c2nnn3c2COC(c2ccccc2)C3)CC1 (stereo unspecified)	-9%
O=C(N[C@H](Cc1ccncc1)C1CC(O)C1)c1cccn2cnnc12 (stereo partly specified)	3%
CCOc1ccccc1CNC(=O)c1ccc2c(c1)N(S(C)(=O)=O)CC2	-16%
O=C(Cn1nc(-c2cccs2)ccc1=O)NC1CCCc2c1[nH]c1c(Cl)cccc21 (stereo unspecified)	5%
CC(C)c1nc2c(c(-c3ccc(O)cc3)n1)CCN(Cc1ccccc1)CC2	16%
COCCN1CCCCCC(O)c2cc(C(=O)N3CCN(c4ccccn4)CC3)ccc21 (stereo unspecified)	-2%
COc1cccc(C(=O)N2CCC(N3C[C@H](O)C[C@H]3C(=O)N3CCc4ccccc4C3)CC2)c1	-11%

More results follow.
SMILES	hNpr1 antagonist
CN1C(=O)[C@H]2CN(Cc3cn[nH]c3-c3cccc(Br)c3)C[C@H]2C1=O	2%
Cc1cccc(C)c1NC(=O)CN1C(=O)NC(c2ccccc2Cl)C2=C1COC2=O (stereo unspecified)	1%
COc1cccc(C(=O)N2CCCN(C(=O)C3CC3)c3ccccc32)c1OC	0%
O=C(NC1CC1)c1nc(-c2cccc(C(F)(F)F)c2)c2ccccn12	-5%
CC1(c2ccccc2)N(Cc2ncccn2)C(=O)OC12CCN(C(=O)Cc1ccc(O)cc1)CC2 (stereo unspecified)	-11%
COc1ccc(S(=O)(=O)NC[C@H]2COCc3nc4ccc(C)cc4n32)cc1	?
CC(O)c1cc2n(n1)CCN(C(=O)CN1CCCN(C)CC1)C2 (stereo unspecified)	3%
COC[C@@H]1CN(S(=O)(=O)c2ccc3c(c2)CCCC3)C[C@H]1C(N)=O	2%
COc1ccc(Cl)cc1C(=O)N1CCC2(CC1)N(C)C(=O)CS2(=O)=O	3%
Cc1cnc(C(=O)N2CC3CC(C2)[C@@H]2CCCC(=O)N2C3)cn1 (stereo partly specified)	1%
Cc1ccc(S(=O)(=O)Nc2ccc(C)n(CC(=O)Nc3cccc(C)c3C)c2=O)cc1	1%
c1ccc(CN(Cc2nc(-c3ccccn3)no2)CC2CC2)cc1	-1%

Grouped by structure, those above with bromine (two)
SMILES	hNpr1 antagonist
CN(C)c1nc2c(c(=O)[nH]1)CCN(Cc1ccccc1Br)CC2	2%
CN1C(=O)[C@H]2CN(Cc3cn[nH]c3-c3cccc(Br)c3)C[C@H]2C1=O	2%

(list continues)
SMILES	hNpr1 antagonist
O=C1CC(c2nc(-c3cn4ccccc4n3)no2)CN1Cc1cccnc1 (stereo unspecified)	1%
COC[C@@H]1CN(C(=O)c2ccc3c(c2)OCO3)C[C@H]1c1ccccn1	0%
COCCNC(=O)CCCN1C(=O)COc2ccc(C(=O)COc3c(C)ccc(C)c3C)cc21	-17%
Cc1nn(C)c(C)c1CCN(C)C(=O)C1Cn2cccc2C(=O)N1C (stereo unspecified)	-1%
Cc1ncoc1C(=O)N[C@@H]1CN(Cc2cccnc2)C[C@H]1CN(C)C	6%
CCN(CC)Cc1nc(C2(O)CCN(Cc3ccc(F)cc3)CC2)cs1	4%[70.6 µM]
CC(C)NC(=O)NC[C@H]1O[C@@H](CC(=O)NC2CC2)[C@H](O)[C@@H]1O	3%[70.6 µM]
CC(=O)Nc1ccc(S(=O)(=O)N2CC[C@H](c3nc4ccccc4o3)C2)cc1	-24%[70.6 µM]
COc1ncccc1-c1cnc2[nH]cc(CC(=O)NCc3ccco3)c2c1	?
C1=CC[C@H]2CN(c3nccc(-c4ccccn4)n3)C[C@H]2C1	-13%
CN(C)C[C@@H]1CN(Cc2ccccn2)C[C@H]1NC(=O)c1n[nH]c2ccccc12	-3%
CC[C@H]1CN(C(=O)c2ccc(F)cc2)CC[C@H]1CC(=O)N[C@@H](CO)CC(C)C	4%[70.6 µM]

Continuation:
SMILES	hNpr1 antagonist
CNC(=O)N1CCC(C2CCN(C(=O)C3CC=CC3)C2)CC1 (stereo unspecified)	1%
O=C(c1ccoc1)N1CCOc2ccc(CN3CCc4ccccc4C3)cc2C1	4%
OC[C@@H]1CN(C2CCSCC2)C[C@H]1c1nc(-c2cccnc2)no1	5%
O=C(NCCN1CCOCC1)c1cccc(C2CCNC2)c1 (stereo unspecified)	4%
Cc1noc(-c2cn(C3CCCN(C(=O)c4ccc(C(C)(C)C)cc4)C3)nn2)n1 (stereo unspecified)	-18%
CC(C)Cc1nc(CN2C[C@@H]3CC[C@H](C2)N(Cc2ccccc2)C3)no1	-3%
Cc1[nH]ncc1CNC(=O)C1CCN(C(=O)c2ncn3c2COC(c2ccc(F)cc2)C3)CC1 (stereo unspecified)	-3%
COc1cccc([C@@H]2CN(CC3CCOCC3)C[C@H]2C(=O)O)c1OC	1%
O=C1CC(c2ccccc2)N(C(=O)CNC(=O)CN2CCCC2=O)CCCCCN1 (stereo unspecified)	2%
COC(=O)c1ccc(NC(=O)c2c(C)oc3ccn(Cc4ccc(F)cc4)c(=O)c23)cc1	-1%
CCC1CN(Cc2cccc(C)n2)CCC(=O)N1Cc1ccccc1 (stereo unspecified)	7%
c1ccc(-n2cc(CN3CCN(c4nc5ccccc5o4)CC3)nn2)cc1	?

Continuation:
SMILES	hNpr1 antagonist
Cc1cnc(C(=O)N2CCCC(Cc3noc(-c4ccccn4)n3)C2)cn1 (stereo unspecified)	1%
COc1cc(OC)c(CNC(=O)c2c(C)noc2-c2cc(OC)c(OC)c(OC)c2)c(OC)c1	-20%
O=C(Nc1ccccc1)N1CCCC(c2nn(-c3ccccc3)c(=O)[nH]2)C1 (stereo unspecified)	2%
O=C(NCCCc1nc2ccccc2[nH]1)C1CCCN(C2CCCC2)C1 (stereo unspecified)	-2%
Cc1cc2c(c(=O)n(-c3ccccc3)c(=O)n2CC(=O)Nc2ccc(F)cc2)n1C	2%
COC1CCC12CCN(C(=O)c1ccco1)CC2 (stereo unspecified)	5%
Cc1nc(C)c(C(=O)N2CCCCCCN(C)C(=O)[C@@H]3CCC[C@@H]32)s1	5%
CN1CCC(N[C@H]2CC(C)(C)[C@@H]3C[C@@](C)(O)CC[C@]23CCC(=O)NCCN2CCOCC2)CC1	2%
Fc1ccc2c(c1)nc1n2[C@@H](CNCc2ccncc2F)COC1	-8%[70.6 µM]
COCC(=O)NC[C@H]1CCN(Cc2scnc2C)C[C@H]1N(C)C	5%
CCn1cc(-c2ccc(F)cc2)cc1C(=O)O	-13%
CCC(CC)NC(=O)C1CCN(c2cnn(CCOC)c(=O)c2)C1 (stereo unspecified)	3%

Other records:
SMILES	hNpr1 antagonist
CN(c1ccccc1)c1cc(=O)c2ccnc(Nc3cccnc3)c2o1	?
Cc1ccc(CC(=O)Nc2cccc(-c3nnc4n3CCCC4)c2)cc1	-10%
CCC(CC)C(=O)NC[C@@H]1C=C(C)[C@H](Cc2nc3ccc(F)cc3[nH]2)C[C@H]1C(C)C	-28%[70.6 µM]
COc1cccc(-c2nc(-c3c(C)noc3C)cc3c2cc(C)n3CCN(C)C)c1OC	-12%[70.6 µM]
COc1cccc(C(=O)N2C(C(=O)NC(C)C)COC23CCN(C(=O)c2ccccc2F)CC3)c1 (stereo unspecified)	3%
O=C(c1ccc2c(c1)OCO2)N1CCC12Cc1ccccc1NC2=O (stereo unspecified)	-3%[70.6 µM]
O=C(c1cccc(Cl)c1)N1CCCC2(C1)NC(=O)N(Cc1ccccc1)C2=O (stereo unspecified)	-23%
CCN(CC)c1cc(CCC(=O)N2CCN(c3cccc(OC)c3)CC2)ccn1	-4%
Cc1ccc(C(=O)N2CCc3n[nH]c(=O)n3CC2)cc1F	-3%
COc1cccc(-c2cc(-c3nc(C4CC(=O)N(C5CCCCC5)C4)no3)[nH]n2)c1 (stereo unspecified)	?
O=C(Nc1c(F)cccc1F)N1CCOc2ccc(CN3CCc4ccccc4C3)cc2C1	-2%
COc1ccc(C(=O)N2CCC3(CC2)CNC(C(=O)O)C3)cc1Cl (stereo unspecified)	3%

The list continues:
SMILES	hNpr1 antagonist
CC1(c2noc(C3CCOCC3)n2)CCN(Cc2c(F)cccc2Cl)CC1	-3%
CN(CC1CCOCC1)C(=O)NCc1ccco1	-8%
CN(C)c1cccc(NC(=O)Cc2c[nH]c3ncc(-c4cccnc4)cc23)c1	-25%[70.6 µM]
CCOc1ccccc1CN1CCC2(CCN([S+](=O)([O-])c3ccc(C)cc3)CC2)Oc2ccccc21	-1%
Cc1cccc(NC(=O)Cn2nc3n(c2=O)CCCCC3)c1C	-9%
Cc1ccc(-c2noc(CCCC(=O)N3CCc4nc5cc[nH]n5c(=O)c4C3)n2)cc1	-11%
O=C(NC1CC1)c1nc(-c2ccc(Cl)cc2Cl)c2ccccn12	5%
O=C(NCc1cccs1)C1CCN(C(=O)c2ncn3c2COC(c2ccccc2)C3)CC1 (stereo unspecified)	-15%
COc1ccc(CNC(=O)N2c3ccccc3CC2c2nc(C(C)C)no2)cc1 (stereo unspecified)	-19%
Cn1nc2n(c1=O)CCN(Cc1ccc3c(c1)CCO3)CC2	2%
CC(C)n1cnnc1-c1nn(C)c2c1CN(C(=O)c1n[nH]c3ccccc13)CC2	-1%
CCCCCCN(CCC(=O)NCCC)C(=O)c1ccoc1	3%

Copied from the list.
hNpr1 antagonist with CCCCCCN(CCC(=O)NCCC)C(=O)c1ccoc1 stands at 3%
hNpr1 antagonist with CCOc1ccccc1CN1CCC2(CCN([S+](=O)([O-])c3ccc(C)cc3)CC2)Oc2ccccc21 stands at -1%
hNpr1 antagonist with COc1ccc(CNC(=O)N2c3ccccc3CC2c2nc(C(C)C)no2)cc1 (stereo unspecified) stands at -19%

High-throughput results (PubChem BioAssay)

A portion of the library. The share of hits here may be higher or lower than overall.
